HNF4A DNA FP = change in binding of human HNF4 alpha to DNA; P41235; HNF4a-FITC DNA binding, fluorescence polarization, 1 h; activity change, % at 10 µM; 0.3% of 360,000 active; AID 1224865; in the data active means activity change above about 30%, passing the limit was not always enough;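 further: controls were the assay level and a saturating level of protein; the project sought stronger binding though the title names inhibitors; some compounds called inactive have numbers as strong as hits; positive values seem to mean higher polarization but the record does not say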
Target sequence (P41235 whole entry, looked up): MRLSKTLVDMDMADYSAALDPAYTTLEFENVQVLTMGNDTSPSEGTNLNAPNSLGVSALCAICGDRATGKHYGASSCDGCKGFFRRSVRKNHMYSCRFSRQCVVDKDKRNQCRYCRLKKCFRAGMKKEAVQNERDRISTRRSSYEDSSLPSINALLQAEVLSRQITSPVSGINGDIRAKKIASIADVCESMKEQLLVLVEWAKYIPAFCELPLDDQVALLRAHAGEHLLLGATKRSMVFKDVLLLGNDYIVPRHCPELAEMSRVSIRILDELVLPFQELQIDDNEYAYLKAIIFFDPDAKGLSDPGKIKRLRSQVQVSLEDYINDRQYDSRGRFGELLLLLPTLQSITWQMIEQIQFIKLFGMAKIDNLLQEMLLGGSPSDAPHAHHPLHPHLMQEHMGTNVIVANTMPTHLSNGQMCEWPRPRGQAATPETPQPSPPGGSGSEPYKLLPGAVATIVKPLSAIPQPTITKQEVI
ALR inh = blocks human ALR sulfhydryl oxidase activity; P55789; purified ALR, DTT oxidation, H2O2 HRP-luminol luminescence; 3.8% of 290,000 active; inhibition, % (no concentration beside the values); AID 485317;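 active means mean and each replicate at 75% or more; inconclusive means only one of the two met; inactive means neither met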;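 further: stock transfer was 7.5 nL into about 7.5 µL; 0% = neutral wells and 100% = wells with inactivated enzyme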
Target sequence (P55789 whole entry, looked up): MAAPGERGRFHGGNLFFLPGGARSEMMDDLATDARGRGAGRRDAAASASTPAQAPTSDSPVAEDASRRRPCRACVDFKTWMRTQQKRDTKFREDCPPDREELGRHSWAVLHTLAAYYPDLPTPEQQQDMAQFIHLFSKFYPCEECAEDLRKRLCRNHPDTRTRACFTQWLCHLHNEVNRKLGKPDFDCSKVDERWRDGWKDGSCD
Vif TR-FRET = HIV-1 Vif–A3G interaction blockers – biochemical, TR-FRET, GST-Vif 1-94, biotin-A3G peptide, dose response retest, primary screen (AID 1117319); TR-FRET GST-Vif / biotin-A3G peptide binding; higher % means a stronger effect; test concentration not given here; strong numbers were not always called active; inhibition, %; hits with a dose series show IC50 in µM; 0.57% of 260,000 active;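 active means above the screen mean plus three standard deviations and confirmed in dose response; inconclusive means results disagree or hit not tested in dose response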;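 further: Vif residues 1-94 fused to GST binding biotinylated APOBEC3G peptide 110-148; 0% = full assay without inhibitor and 100% = GST in place of GST-Vif; retest series ran down from 100 µM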
Calb FLC = C. albicans growth modulation with fluconazole | C. albicans CaCi-2 (fluconazole-resistant clinical isolate) + fluconazole, Alamar Blue growth, 48 h | growth inhibition, % (concentration not given with the values) | 0.57% of 300,000 active;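 active means most replicates above 75%; inconclusive means exactly half above 75%; inactive means most below 75%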;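 further: all wells also contain fluconazole at 8 µg/ml as a sub-toxic cotreatment; 0% = median of DMSO wells and 100% = median of geldanamycin control wells; wells of about 8 µL received 7.5 nL stock; the first replicate is given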
RanGTP-Imp inh = inhibitors of RanGTP-importin-beta interaction, primary screen, biochemical, FRET, CFP-Ran, YFP-importin-beta, homogeneous. cell-free CFP-Ran/YFP-importin-beta FRET ratio. inhibition, % (test concentration not listed). AID 2216. 1.1% of 300,000 active;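 active means most replicates above 15%; inconclusive means exactly half above 15%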;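 further: 0% = DMSO wells and 100% = Ran loaded with GDP instead of GTP; wells of about 40 µL received 100 nL stock; the first replicate is given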
LANA-H2B inh = blocks KSHV LANA binding to histone H2A/H2B. AID 2629. inhibition, % (concentration not given with the values). cell-free LANA-H2A/H2B peptide, fluorescence polarization. Q9QR71. 0.6% of 320,000 active; in the data active means inhibition mostly above about 10%, no sharp cut-off; inactive means mostly below about 6.7%;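 further: stock transfer was 7.5 nL into about 10 µL; 0% = median of vehicle wells and 100% = median of positive control wells; one replicate is shown; the record names a cut of 25% in any replicate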
Beta2AR agonist = agonists of human beta-2 adrenergic receptor inducing internalization; P07550; response, % (no concentration beside the values); AID 504454; 0.43% of 340,000 active; Am2.2-beta2AR cells, FAP receptor internalization, flow cytometry; reference of the scale not given here;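 active means response above a set limit, near 3 SD of response in nonfluorescent compounds, cut at about 42% in these data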;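 further: stock transfer was 100 nL into about 11 µL; a reference agonist was the positive control; negative values mostly stem from fluorescent compounds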
Target sequence (P07550 whole entry, looked up): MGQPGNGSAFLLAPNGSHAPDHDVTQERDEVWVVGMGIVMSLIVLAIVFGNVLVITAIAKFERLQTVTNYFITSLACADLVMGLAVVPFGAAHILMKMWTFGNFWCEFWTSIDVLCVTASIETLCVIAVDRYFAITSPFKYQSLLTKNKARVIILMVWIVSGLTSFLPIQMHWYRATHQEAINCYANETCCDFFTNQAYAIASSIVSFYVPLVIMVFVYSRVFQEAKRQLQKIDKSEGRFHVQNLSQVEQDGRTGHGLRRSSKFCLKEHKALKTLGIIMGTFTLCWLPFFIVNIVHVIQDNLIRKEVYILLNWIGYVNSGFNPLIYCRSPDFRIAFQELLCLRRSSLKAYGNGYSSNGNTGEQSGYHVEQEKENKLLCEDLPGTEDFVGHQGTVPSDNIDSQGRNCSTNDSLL
* hit, by the source's call; ? = inconclusive; / = no result given.

no. | mol | HNF4A DNA FP | ALR inh | Vif TR-FRET | Calb FLC | RanGTP-Imp inh | LANA-H2B inh | Beta2AR agonist
1 | CC1CCN(S(=O)(=O)c2cccc(C(=O)Nc3nccs3)c2)CC1 | 1.3 | 13 | 12% | -6 | 1.2 | -2.2 | -13
2 | Cc1cc(NC(=O)CSc2nnc(NC(=O)C3CC(=O)N(c4ccccc4)C3)s2)no1 (centres undefined) | 0.2 | 0 | / | -2 | 3.7 | -2.7 | -10
3 | Cc1cc(F)ccc1S(=O)(=O)Nc1ncnc2sc3c(c12)CCC3 | -7.8 | 33 | / | ? | -1.9 | 3.2 | 21
4 | CC(NC(=O)C1CCN(S(=O)(=O)c2ccc3nc4c(c(C(=O)O)c3c2)CCCC4)CC1)c1ccccc1 (centres undefined) | 1.5 | -1 | 7% | -19 | 0.6 | 7.4 | 4
5 | C#Cc1cccc(C(=O)N2CCCC(Nc3cccc(F)c3)C2)c1 (centres undefined) | 2.2 | 27 | / | -27 | -3.0 | -1.8 | 2
6 | CCN1CCN(S(=O)(=O)c2cccc([N+](=O)[O-])c2)CC1 | -3.1 | -12 | 0% | -7 | 0.2 | 3.0 | -5
7 | O=C(COC(=O)c1ccc(S(=O)(=O)N2CCCC2)cc1)Nc1cccc(Cl)c1 | 1.2 | 2 | / | / | / | -1.3 | 1
8 | Cc1cccc(C)c1NC(=O)C1CCCN1C(=O)NCc1ccccc1 (centres undefined) | -0.2 | -6 | / | 3 | -4.3 | -3.2 | 1
9 | COc1cc(CC(=O)OCC(=O)Nc2cc(S(=O)(=O)N3CCCC3)ccc2Cl)cc(OC)c1OC | 2.4 | -9 | -2% | -25 | ? | 1.1 | -1
10 | O=c1c2[nH]c3cccc(Cl)c3c2ncn1CC1CCCO1 (centres undefined) | -3.8 | -5 | -3% | -1 | -2.2 | -1.5 | 1
11 | Cc1nc2c(=O)[nH]c3ccccc3c2o1 | -0.6 | -3 | ? | -22 | ? | -1.0 | -6
12 | CCOc1ccccc1OCCCC(=O)Nc1ccc(Cl)c(S(=O)(=O)N2CCOCC2)c1 | -1.4 | -10 | 14% | / | / | 30* | -5
13 | O=C(NCc1ccc(F)cc1)C(c1ccc(F)cc1)N(C(=O)c1csnn1)C1CC1 (centres undefined) | 0.1 | -6 | / | 9 | -8.5 | -3.2 | -1
14 | COC(=O)c1cc(C(=O)c2cc(F)ccc2O)cn2c(=O)c3c(C)c(C)sc3nc12 | 68* | 4 | 18% | -13 | 8.3 | 4.4 | 4
15 | O=C(COc1ccc(Cl)cc1)NCCS(=O)(=O)N1CCN(c2ccccc2F)CC1 | 2.0 | 2 | / | -7 | -1.4 | -3.9 | -3
16 | CCN(C(=O)c1ccc(=O)n(C)n1)c1c(N)n(Cc2ccccc2)c(=O)[nH]c1=O | 1.1 | / | -6% | / | / | / | -1
17 | O=C(N/N=C/c1cccc([N+](=O)[O-])c1)c1nc2ccccc2c(=O)[nH]1 | 0.3 | -5 | / | -3 | 8.2 | -3.1 | 8
18 | O=C(CSc1ncn[nH]1)N1CCCCC1 | 1.2 | / | -2% | 8 | -0.5 | -2.1 | -4
19 | CCOC(=O)C1(Cc2cccc(Cl)c2)CCCN(C(=O)c2cc(C)[nH]n2)C1 (centres undefined) | -1.8 | -1 | / | 2 | 0.5 | -1.0 | 3
20 | CN1C(=O)CC(=O)N(C)c2cc(S(=O)(=O)N(C)Cc3ccccc3)ccc21 | 1.1 | -8 | / | 1 | 1.4 | -1.6 | 0
21 | O=C(/C=C/c1ccccc1)Nc1ccc(Br)cn1 | -2.4 | -2 | ? | -3 | 0.0 | 1.0 | -9
22 | C=CCOC(=O)C1=C(C)NC(=O)NC1C1CC=CCC1 (centres undefined) | 1.8 | -1 | -4% | 10 | 0.5 | -4.6 | -5
23 | CCOC(=O)CCC(=O)N1CCOCCN(C(=O)CCC(=O)OCC)CCOCC1 | 5.0 | -5 | 89% | 7 | 1.2 | 2.1 | -3
24 | CCCCCOc1ccc(C(=O)NCC2(c3ccccc3)CCOCC2)cc1 | 0.9 | / | -3% | -4 | 0.3 | -8.4 | -4
25 | COc1ccc(NC(=S)NNC(=S)Nc2cccc(C(F)(F)F)c2)cc1 | -1.1 | 14 | ? | -1 | 6.0 | -1.1 | 1
26 | CN(C(=O)c1cc2ccccc2o1)c1c(N)n(Cc2ccccc2)c(=O)[nH]c1=O | 3.5 | / | / | / | / | 4.2 | 9
27 | CC[n+]1c(C)n(-c2ccccc2)c2ccc(C(=O)OC)cc21 | -1.7 | 1 | 29% | -10 | 2.1 | -3.1 | -6
28 | O=C(NC1CC1)c1cccc2c1C(=O)c1ccc(N3CCC(Cc4ccccc4)CC3)cc1S2(=O)=O | 76 | 0 | / | / | / | 6.6 | -40
29 | O=C(/C=C/c1ccccc1[N+](=O)[O-])NC1CCCC1 | 0.4 | 5 | 8% | 8 | -3.5 | -0.7 | -5
30 | COc1ccc(CCNC(=O)N[C@@H](Cc2ccccc2)C(=O)O)cc1 | 2.2 | 4 | -14% | -11 | -0.1 | 0.0 | 8
31 | COCCCN=Cc1c(C)[nH]n(-c2ccc(Br)cc2Br)c1=O | 5.2 | 0 | 6% | 25 | -1.7 | -4.5 | 3
32 | Cc1cc(C)n(-c2ccc(C(=O)Nc3nc4ccccc4s3)cc2)n1 | -1.6 | -4 | 11% | 0 | 3.8 | 4.9 | -2
33 | COc1ccc(OCC(=O)NCc2n[nH]c(=O)c3ccccc23)cc1 | 1.1 | 0 | 3% | 6 | -6.3 | 3.5 | 4
34 | CCOC(=O)N1CCOCCOCCN(C(=O)OCC)CCOCC1 | 2.6 | 2 | -3% | -3 | 5.7 | -1.3 | -13
35 | CCN(CC)CCn1c2c(c(SCC(=O)Nc3nc4ccc(C)cc4s3)nc1=O)CCC2 | 0.3 | 21 | -2% | 10 | -1.8 | 1.8 | 13
36 | O=C(CSc1ncn[nH]1)Nc1ccc(S(=O)(=O)Nc2ncccn2)cc1 | -0.5 | 6 | 17% | -3 | 5.1 | -7.5 | 4
37 | N#C/C(=C\c1ccncc1)c1nc2ccccc2[nH]1 | 1.9 | / | ? | 6 | 7.4 | / | -2
38 | Cc1cccc(C(=O)NC(NC(=S)Nc2ccc(S(N)(=O)=O)cc2)C(Cl)(Cl)Cl)c1 (centres undefined) | 4.3 | 28 | / | 1 | 2.6 | -4.1 | 7
39 | O=C1/C(=C/c2ccncc2)SC(=S)N1Cc1ccccc1 | 3.5 | 3 | / | -2 | 2.6 | -6.0 | 4
40 | CCN(CC)Cc1c(O)ccc2c1O/C(=C\C=C\c1ccccc1)C2=O | 45 | 3 | 12% | 15 | -50 | 2.9 | 28

Some entries already given, reduced to LANA-H2B inh, Calb FLC and HNF4A DNA FP:
no. | molecule | LANA-H2B inh | Calb FLC | HNF4A DNA FP
35 | CCN(CC)CCn1c2c(c(SCC(=O)Nc3nc4ccc(C)cc4s3)nc1=O)CCC2 | 1.8 | 10 | 0.3
36 | O=C(CSc1ncn[nH]1)Nc1ccc(S(=O)(=O)Nc2ncccn2)cc1 | -7.5 | -3 | -0.5
37 | N#C/C(=C\c1ccncc1)c1nc2ccccc2[nH]1 | / | 6 | 1.9
38 | Cc1cccc(C(=O)NC(NC(=S)Nc2ccc(S(N)(=O)=O)cc2)C(Cl)(Cl)Cl)c1 (centres undefined) | -4.1 | 1 | 4.3
39 | O=C1/C(=C/c2ccncc2)SC(=S)N1Cc1ccccc1 | -6.0 | -2 | 3.5
40 | CCN(CC)Cc1c(O)ccc2c1O/C(=C\C=C\c1ccccc1)C2=O | 2.9 | 15 | 45

(list continues)
no. | mol | HNF4A DNA FP | ALR inh | Vif TR-FRET | Calb FLC | RanGTP-Imp inh | LANA-H2B inh | Beta2AR agonist
41 | O=c1nc2n(c3c4c(sc13)CCC4)CCC2 | -0.4 | 22 | ? | -15 | -1.9 | -2.8 | 3
42 | Cc1ccc(S(=O)(=O)N(CC(=O)N2CCc3ccccc3C2)c2ccc(Cl)c(Cl)c2)cc1 | -0.5 | -2 | 0% | -3 | 0.4 | -1.9 | 4
43 | N#Cc1c2n(c(=S)n(-c3ccccc3)c1=O)CCCCC2 | 2.7 | -11 | 7% | 12 | 2.8 | -3.4 | -2
44 | O=C(CN1CCCc2ccccc21)N/N=C/c1c(O)ccc2ccccc12 | 3.6 | -13 | / | 85* | 0.2 | -1.8 | 13
45 | COC(=O)c1cc(OC)c(OC)cc1NC(=S)N1CCN(c2ccccc2)CC1 | -4.7 | 10 | -5% | 32 | -3.7 | 6.3 | 1
46 | CC1(C)C(=O)C2(CCCCC2)C(=O)OC1C(=O)c1ccccc1 (centres undefined) | 1.1 | -7 | -3% | -4 | 0.8 | 2.0 | 7
47 | O=C(C(=O)N1CCN(Cc2ccccc2)CC1)c1c[nH]c2ccccc12 | 0.8 | 45 | / | / | / | -0.7 | -4
48 | O=C(CCS(=O)(=O)c1cccc2nsnc12)N1CCN(c2ccccc2F)CC1 | 2.1 | -8 | 15% | 11 | -0.1 | -0.7 | 7
49 | CC(NCc1cccs1)C(=O)Nc1cc(Cl)cc(Cl)c1 (centres undefined) | -0.5 | -10 | / | -1 | -0.1 | -9.0 | 5
50 | O=C(NCCN1CCOCC1)c1ccc2c(c1)N(Cc1ccccc1)C(=O)c1ccccc1S2 | 2.8 | / | / | -7 | 1.7 | -1.2 | 5
51 | O=C(CN1CCN(c2ccccc2)CC1)Nc1c(C(=O)C2CC2)oc2ccccc12 | -2.3 | 3 | ? | -5 | -2.4 | 0.4 | 22
52 | COCc1cc(Sc2ccc(Cl)cc2)nc(C)n1 | 0.8 | -14 | -9% | -1 | 3.3 | 0.7 | -6
53 | O=C(c1ccc2ccccc2n1)N1CCN(c2ccccn2)CC1 | 2.2 | / | -3% | 6 | 2.7 | -3.6 | -2
54 | C=CCn1c(SC)nnc1C1COc2ccccc2O1 (centres undefined) | -1.8 | -1 | / | 3 | 7.9 | -1.5 | -1
55 | COc1ccc(C(=O)NNC(=O)C(NC(=O)c2cc(OC)cc(OC)c2)C(C)C)cc1 (centres undefined) | 1.4 | -3 | / | / | / | 1.9 | -4
56 | COc1cccc(N(C(=O)C2COc3ccccc3O2)C(C(=O)NC2CCCCC2)c2ccc(O)cc2)c1 (centres undefined) | / | -3 | / | -3 | 10 | 1.6 | /

Values by screen from the entries so far.
Compounds 20 to 26 in Beta2AR agonist read 0, -9, -5, -3, -4, 1, 9

The list goes on:
no. | mol | HNF4A DNA FP | ALR inh | Vif TR-FRET | Calb FLC | RanGTP-Imp inh | LANA-H2B inh | Beta2AR agonist
57 | Cc1ccc(OCC(O)CN2CCN(CCO)CC2)c(C)c1 (centres undefined) | 5.1 | -30 | / | 1 | -0.8 | -0.7 | 7
58 | CC(C)(C)OC(=O)NNc1c2ccccc2nc2ccccc12 | 0.5 | / | / | 2 | 45* | -2.0 | -12
59 | COc1ccc(CNC(=O)c2cc(-n3cnnc3)ccc2Cl)cc1 | 0.5 | -4 | -5% | 30 | 0.7 | -5.0 | 4
60 | CC(=O)N(C)c1ccc(NC(=O)Nc2ccc(C)cc2)cc1 | -2.1 | 4 | 0% | -5 | -2.1 | 1.3 | 2
61 | COc1cccc(CN2CC(C(=O)N(C)CC3CCOCC3)CCC2=O)c1 (centres undefined) | -0.6 | 4 | 4% | 3 | 7.7 | -2.3 | -5
62 | Cc1cc(NCCc2ccccc2F)n2ncnc2n1 | 0.8 | 1 | 0% | 6 | 3.6 | 1.4 | 3
63 | O=C(COC(=O)COc1ccc(Cl)cc1)NCc1cccs1 | -0.3 | -1 | 32% | 5 | -2.6 | -6.2 | 3
64 | O=C(NCCc1ccccc1F)C1CC(O)CN1C(=O)Nc1ccccc1 (centres undefined) | 3.7 | / | / | 4 | -0.7 | / | -3
65 | CCOC(=O)CN1CCC(c2ccccc2)CC1 | -1.0 | -6 | / | 26 | -3.1 | 3.1 | 5

High-throughput results deposited in PubChem by several laboratories.
